Screening data from PubChem BioAssay.
Anthrax LT inh = anthrax lethal toxin internalization inhibition. AID 912. 0.67% of 70,000 active. Cells, anthrax lethal toxin internalization, FRET ratio (460/530). Potency, µM (titrated, usually from 40 µM), for inactives: top-dose activity change, negative = inhibition, usual class: inhibitors; active = well fitted falling ratio curve with the 530 nm signal flat; inconclusive = other ratio curves, or a change in one channel alone; inactive = flat curves in the ratio and both channels; the % refers to the ratio; also: % is scaled to controls: 0 for no effect and ±100 for the full control effect; nearly all actives have a fitted effect of over 50% in size; tested in ME-180 cells; beta-lactamase reporter
SmPrx2 inh = blocks S. mansoni peroxiredoxin 2 enzymatic activity; AID 448; Potency, µM; 0.07% of 65,000 active; S. mansoni Prx2 activity coupled to TGR/GSH (TGR is thioredoxin glutathione reductase), NADPH fluorescence loss, qHTS; some inactives read as strong as hits; active means full or partial inhibition curve with a strong effect at the top dose; inconclusive means weaker partial or single-point curve; inactive means no accepted curve; also: series up to 57 µM; many of its hits are not listed in these tables
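Prx2 activity was followed as the loss of NADPH fluorescence (ex 365/em 450 nm), read every 30 sec for 8 min after H2O2 start. The enzyme mix (50 nM Prx2, 25 nM TGR, GSH, NADPH; pH 7.4 phosphate buffer) was incubated with compound for 15 min at room temperature first.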
Numbers without * were called inactive; ? = inconclusive; / = not tested or not shown; [ ] = remark or other dose. Potency is read from the fitted curve at half-maximal effect. Only part of the results is shown; count on the stated rates, not on these rows.

compound | Anthrax LT inh | SmPrx2 inh
CCOC(=O)CNC(=O)CSc1nc(C)cc(C)c1C#N | 6% | >57
CN(C)C(=O)c1ccc(COc2ccccc2Br)o1 | 10% | >57
CCCN(C#N)c1nc(NCC)nc(NC(C)C)n1 | -22% | >57
CC[C@@H](CO)NC(=O)[C@H]1C=C2c3cccc4c3c(cn4C)C[C@H]2N(C)C1 | ? | >57
Cc1cccc(NC(=O)c2ccccc2C(=O)O)c1 | 0% | >57
Cc1nn2c(c1-c1ccccc1)NC1=C(C(=O)CCC1)C2c1cccnc1 (centres undefined) | 9% | >57
Cn1c2ccccc2c2nnc(SCN3C(=O)c4ccccc4C3=O)nc21 | -2% | >57
COc1ccccc1N1CCN(S(=O)(=O)c2cccc(F)c2)CC1 | -6% | >57
CC(C)(C)c1ccc(OCC(=O)N2CCN(C=O)CC2)cc1 | 2% | /
CCOC(=O)C1=C(C)NC2=C(C(=O)CCC2)C1c1ccc(N(C)C)cc1 (centres undefined) | 24% | /
CCn1c(CSc2nc(C)cc(C)n2)nnc1SCC(=O)N1CCCc2ccccc21 | 5% | >57
COc1ccc(NC(=O)CCNC(=O)Cn2ccc3ccccc3c2=O)c(OC)c1 | 3% | >57
COc1ccc(Oc2ncc3nc(-c4ccc(F)cc4)c(=O)n(C)c3n2)cc1 | -23% | >57
CCOC(=O)c1sc(C)c2c(=O)n(CCCN3CCOCC3)cnc12 | -6% | >57
CCn1cc(C(=O)N2CC=C(c3ccccc3)CC2)c(=O)c2ccc(C)nc21 | / | >57
COc1cccc(-c2nn(C)c3sc(C(=O)N4CCOCC4)cc23)c1 | 19% | >57
CC1(C)O[C@@H]2C[C@H]3[C@H]4C[C@H](F)C5=CC(=O)C=C[C@@]5(C)[C@@H]4[C@H](O)C[C@]3(C)[C@]2(C(=O)CO)O1 | 6%[3.58 µM] | >57
c1ccc(-c2cc(CSc3nc4ccccc4[nH]3)on2)cc1 | 11% | >57
O=C1C[C@@H](O)[C@@H](O)[C@H]2[C@@H]3C(=O)N(C4CCCCC4)C(=O)[C@@H]3CC[C@H]12 | ? | /
COc1cc2nc(C3CCC3)n(NC(=O)C(OC(C)=O)c3ccccc3)c(=O)c2cc1OC (centres undefined) | 9% | >57
CCNc1ncc2nc(C)c(=O)n(C)c2n1 | 5% | >57
Cn1nnc(C(O)CNCc2cccs2)n1 (centres undefined) | ? | >57
CCOc1cc(N2CCOCC2)c(OCC)cc1NC(=O)c1nc2nccc(C)n2n1 | 3% | >57
CC1(C)CC(=O)c2cnc(NC(=O)c3ccco3)nc2C1 | -18% | >57
CCCn1c(C)nc2c(NCCCN(C)C)nc(C)nc21 | -4% | /
CCOC(=O)CNC(=O)Nc1nnc(-c2ccc(OCC)cc2)o1 | 1% | >57
CCC1(C)Cc2ccccc2/C(=C/C(=O)N2CCCCC2)N1 (centres undefined) | ? | >57
CCCCC(=O)Nc1cccc(-c2nc3ncccc3o2)c1 | -4% | /
Clc1ccc(Br)cc1-c1nc(-c2ccncc2)no1 | -2% | >57
CCCSc1nc(O)c(CC)c(=O)n1C(C)CC (centres undefined) | 3% | >57

The results go on.
compound | Anthrax LT inh | SmPrx2 inh
CN1CCN(c2ncnc3ccc(Br)cc23)CC1 | -2% | >57
COc1ccc(CC(=O)Nc2ccc3c(c2)CCC3)cc1S(=O)(=O)N1CCOCC1 | ? | >57
O=C(OCc1cccc2ccccc12)c1ccc2c(=O)[nH]c(CN3CCOCC3)nc2c1 | -9% | >57
Nc1nonc1C(=O)OCC(=O)N1CCCCC1 | 4% | >57
Cc1cc(C)n(-c2nncn2NC(=O)c2ccc(Cl)cc2O)n1 | 11% | >57
CC(C)CC1(C(=O)NCc2ccccn2)C=CCN1C(=O)c1ccccc1 (centres undefined) | -4% | /
CS(=O)(=O)N1CCC(C(=O)NCCN2CCN(Cc3ccccc3)CC2)CC1 | / | >57
O=C(Nc1ccccc1Cl)c1cnccn1 | -11% | >57
CCOc1ccc(N(Cc2cc3ccc(C)cc3[nH]c2=O)C(=O)COC)cc1 | / | >57
Cc1sc2nc3c4ccccc4c(NCc4ccco4)nn3c(=O)c2c1C | 18% | >57
CCC/C=C(\CCC)C(NC(=O)c1ccc(-c2ccccc2)cc1)c1ccc(C(=O)OC)cc1 (centres undefined) | -12% | >57
COc1ccccc1-c1cc(N(C)Cc2ccco2)ncn1 | -5% | >11
COC(=O)c1ccccc1N1C(=O)[C@@H]2C(c3ccc(F)cc3)=NO[C@@H]2C1=O | -8% | >57
COc1ccc(S(=O)(=O)N2Cc3ccccc3CC2C(=O)N2CCOCC2)cc1 (centres undefined) | 12% | >57
CC#CCOC(=O)C1=CCCN(C)C1 | -1% | >57
CC1(C)Cc2c(sc3c2c2ncnn2c2nnc(SCC(=O)NCc4ccco4)n32)CO1 | ? | >57
COC(=O)c1cc(NC(=O)C2CC2)cc(C(=O)OC)c1 | 0% | >57
Cn1c(SCc2nn[nH]n2)nc2c1c(=O)n(Cc1ccccc1Cl)c(=O)n2C | ? | >57
Cc1ccc(CC2CC(=O)N(c3cc(C)on3)C2=O)cc1 (centres undefined) | 2% | >57
CCCCOC(=O)C1C2C=CC3(CN(CCc4ccccc4)C(=O)C13)O2 (centres undefined) | 15% | >57
Cn1c(C(=O)O)c(CC(=O)NCC2COc3ccccc3O2)c2ccccc21 (centres undefined) | 4% | >57
N#CC1=C(N)SC(N)=C(C#N)C1c1ccoc1 | -17% | >57
Cc1cccc(N2C(=O)c3cccc4c(N(C)CCO)ccc(c34)C2=O)c1 | -14% | >57
N#Cc1cccc(NC(=O)N2CCCC3(CCN(C(=O)c4ccncc4)CC3)C2)c1 | -8% | >57
Cc1cccc(-c2nc(CS(=O)CC(=O)NCC3CCCO3)c(C)o2)c1 (centres undefined) | -5% | >57
CC(=O)c1cccc(NC(=O)CCS(=O)(=O)c2cccc3nonc23)c1 | -2% | >57
OCCOCCNc1ncnc2nc[nH]c12 | ? | >57
CN(Cc1ccncc1)C1CC(=O)N(c2ccc(Cl)cc2)C1=O (centres undefined) | 12% | >57
C(=N\n1cnnc1)/c1ccc2c(c1)OCCO2 | 13% | >57
OCCCNCc1cccc2ccccc12 | 4% | >57

(listing goes on)
compound | Anthrax LT inh | SmPrx2 inh
O=C1c2[nH]nc(-c3ccccc3O)c2C(c2ccc(F)cc2)N1CC1CCCO1 (centres undefined) | ? | >57
CCCCc1ccc(S(=O)(=O)Nc2cc(C)on2)cc1 | 0% | >57
O=C1c2ccccc2S(=O)(=O)N1Cc1cc(=O)n2ccsc2n1 | 13% | >57
COc1ccc(CN(CC(=O)NCC2CCCO2)C(=O)CCC(=O)Nc2cc(C)on2)cc1 (centres undefined) | -4% | >57
COc1ccc(Br)cc1-c1noc(-c2ccccc2F)n1 | 2% | >57
C=CCNC(=O)C1CCN(c2nc(C)cc(-c3ccccc3)n2)CC1 | 0% | >57
O=C(CSc1nnc(CNC(=O)c2c(F)cccc2Cl)o1)Nc1ccccc1 | -7% | >57
CC1CCCN(Cc2nc3c(c(=O)n(C)c(=O)n3C)n2CCCc2ccccc2)C1 (centres undefined) | -12% | >57
CN(C)CCCOC(=O)c1ccc(Br)cc1 | -10% | >57
COc1nc(OC)nc(N2CCC(C(=O)Nc3cccc4ccccc34)CC2)n1 | -3% | >57
O=C(CN(C(=O)CNS(=O)(=O)c1ccccc1)C1CCCC1)NCC1CCCO1 (centres undefined) | -2% | >57
c1csc(CNc2nc3ccccc3n2CCN2CCOCC2)c1 | 1% | >57
c1ccc(B2OC[C@@H]3OB(c4ccccc4)O[C@H]([C@@H]4COB(c5ccccc5)O4)[C@@H]3O2)cc1 | 5%[8 µM] | >57
Cc1noc(C)c1S(=O)(=O)N1CCCC(C(=O)NCc2ccccn2)C1 (centres undefined) | 0% | >57
COc1ccc(N(CC(=O)N2CCc3ccccc3C2)S(=O)(=O)c2c(C)[nH]c(=O)[nH]c2=O)cc1 | 14% | >57
Cc1cc(C)c(OCC(=O)Nc2ccc3c(c2)OCO3)cc1C | -7% | >57
CSCCOC(=O)c1[nH]c2c(c1C)C(=O)CC(c1ccco1)C2 (centres undefined) | ? | >57
CCCOC(=O)c1ccc(OCC(O)CN2CCN(C(=O)c3ccccc3)CC2)cc1 (centres undefined) | 9% | >57
O=c1c2ccccc2sn1-c1ccc(S(=O)(=O)N2CCCCC2)cc1 | 0.16µM* | >57
O=C(NC1CCCc2ccccc21)C1CCC(CNc2c(N3CCOCC3)c(=O)c2=O)CC1 (centres undefined) | ? | >57
O=C(O)CSCc1nc2ccccc2s1 | -2% | >57
Cn1c(Cn2cnc3ccccc32)nnc1SCc1ccccc1 | ? | >57
Cc1csc(NC(=O)CSc2nnc(Cc3cccn3C)n2CCc2ccccc2)n1 | 6% | /
COc1ccc(C)cc1S(=O)(=O)N(C)CC(=O)Nc1ccccc1 | 10% | >57
O=C(c1cc2ccccc2oc1=O)N1CCN(c2ccc(N3CCOCC3)nn2)CC1 | -15% | >57
COc1ccc(Oc2ncc3ncc(=O)n(C[C@H]4CCCO4)c3n2)cc1 | 1% | >57
COc1ccc([C@@H]2[C@H]3CN(C(C)=O)CC=C3C(C#N)=C(N)C2(C#N)C#N)c2ccccc12 | / | >57
O=c1cnc2cnc(N3CCNCC3)nc2n1CCc1ccccc1 | 15% | >11
COc1cc(NS(=O)(=O)c2ccc(F)cc2)c(C(=O)O)cc1OC | ? | >57
O=C1N=C(N2CCCCC2)SC1=C1CCCC1 | -3% | /

The results go on.
compound | Anthrax LT inh | SmPrx2 inh
CC(=O)N1CCN(c2ccc(Nc3nc(C)nc4c3oc3ccccc34)cc2)CC1 | -25% | >57
O=C(OCC(=O)N1CCN(C(=O)c2ccco2)CC1)c1sc2cc(F)ccc2c1Cl | -6% | >57
N[C@@H](Cn1oc(=O)[nH]c1=O)C(=O)O | -3% | >26
CC(C)c1ccc(S(=O)(=O)c2n[nH]n3c2nc(=O)c2ccccc23)cc1 | ? | >57
c1ccc(Nc2cc(-c3ccoc3)ncn2)cc1 | 5% | /
CCCCCCc1ccc(OCC(=O)O)cc1OCC(=O)O | 10% | >57
COc1ccc(S(=O)(=O)N(C)CC(=O)Nc2ccc3c(c2)OCO3)cc1OC | -6% | >57
COc1ccc(CCNC(=O)c2nn(C)cc2Cl)cc1 | -2% | >57
O=C(CSc1nnc(-c2cccnc2)n1Cc1ccco1)c1ccc(Cl)cc1 | 4% | >57
O=C(c1ccco1)N1CCN(C(=O)C(Sc2ccccc2)c2ccccc2)CC1 (centres undefined) | -4% | >57
Cc1cnc(C(=O)Nc2ccc(N3CCOCC3)cc2)cn1 | -2% | >57
Cc1nn(Cc2ccccc2)c(N)c1C#N | 4% | >57
CCc1ccc(N2CC34C=CC(O3)C(C(=O)OC)C4C2=O)cc1 (centres undefined) | -14% | >57
Fc1ccc2nc(N3CCCCC3)sc2c1 | 5% | /
CC(C)NC(=O)NC(=O)COc1ncnc2sccc12 | 2% | >57
CCCCC(=O)Nc1ccc(C(=O)NCCCn2ccnc2)cc1 | 11% | >57
COc1ccc(CNC(=O)COc2ccc(S(=O)(=O)NC(C)C)cc2)cc1 | 6% | >57
Cc1ccc(S(=O)(=O)Nc2ccc(NC(=O)CN3CCCCC3)cc2)cc1 | -19% | >57
CC1CCCC(C)N1c1nnc(N)s1 (centres undefined) | -6% | >57
N#C/C(=C(/O)COC(=O)Cc1c[nH]c2ccccc12)c1nc2ccccc2[nH]1 | 6% | >57
CCCCn1c(-c2cc(Cl)ccc2OC)n[nH]c1=S | / | >57
COC(=O)c1cc(C)sc1NC(=O)c1cccnc1 | / | >57
CC(C(=O)Nc1nc2ccccc2[nH]1)N1C(=O)C2CC=CCC2C1=O (centres undefined) | 5% | >57
COc1cccc(OCCn2cc(C(=O)c3ccco3)c3ccccc32)c1 | -15% | >57
CC(Sc1nc(N(C)C)nc(N2CCOCC2)n1)C(=O)Nc1ccccc1 (centres undefined) | 20% | >57
CCOC(=O)c1[nH]c(C)c(C(=O)N2CCN(c3cccc(Cl)c3)CC2)c1C | -15% | >57
COc1ccc(NC(=O)Nc2ccc(C(=O)N3CCOCC3)cc2)cc1 | -5% | >57
COc1ccc(C)cc1N(C(=O)CNC(=O)c1ccco1)C(C(=O)NC1CCCC1)c1cccnc1 (centres undefined) | 6% | >57

Exported as labelled records: part of the list above
> Cc1ccc(S(=O)(=O)Nc2ccc(NC(=O)CN3CCCCC3)cc2)cc1
  Anthrax LT inh: -19%; SmPrx2 inh: >57
> CC(C)NC(=O)NC(=O)COc1ncnc2sccc12
  Anthrax LT inh: 2%; SmPrx2 inh: >57

Full records as entered above.
CCOC(=O)c1[nH]c(C)c(C(=O)N2CCN(c3cccc(Cl)c3)CC2)c1C is listed as Anthrax LT inh: -15%; SmPrx2 inh: >57
CCCCCCc1ccc(OCC(=O)O)cc1OCC(=O)O is listed as Anthrax LT inh: 10%; SmPrx2 inh: >57
COc1ccc(C)cc1N(C(=O)CNC(=O)c1ccco1)C(C(=O)NC1CCCC1)c1cccnc1 (centres undefined) is listed as Anthrax LT inh: 6%; SmPrx2 inh: >57
